eIF4H inh – inhibitors of RNA binding by human eIF4H. Q15056. eIF4H fluorescence polarization binding assay. inhibition, % at 35 µM. actives 0.94% (n = 290,000). AID 2012;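 active = 50% or more with normal probe brightness, or confirmed in later tests; inconclusive = above 50% with abnormal brightness, or retests that disagree; inactive = below 50% or failed in later tests; about a fifth of its hits are not listed in these tables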;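 note: calls also rest on retests at 20 µM and on dose response follow-up; 0% = protein and probe with vehicle and 100% = probe without protein; strong numbers were not always called active; many hits fall short of the cut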
Env fusion inh – HIV envelope-mediated fusion inhibition. HeLa-JRFL Env/CEM21 cell fusion, luciferase. inhibition, % at 12.3 µM. actives 1.1% (n = 360,000). AID 651610;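 active = mean replicate inhibition score of at least 50 and every replicate individually at or above 50; inconclusive = only one of the two criteria met; inactive = mean below 50 and not all replicates reaching 50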;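 note: 0% = plate neutral controls and 100% = maraviroc near 300 nM; one replicate is shown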
Rce1 inh – blocks yeast Ras-converting enzyme | Q03530 | yeast membranes, quenched prenylated peptide cleavage fluorescence | calls only | actives 0.27% (n = 290,000);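 active = fall in fluorescence gain of 50% or more versus controls, with final raw signal at or below 3038400; inconclusive = same 50% fall but final raw signal above 3038400; inactive = fall in fluorescence gain under 50%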;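 note: plate controls were neutral control wells for no effect and wells lacking membranes for full effect; tested at 10 µM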
Target sequence (Q03530 whole entry, looked up): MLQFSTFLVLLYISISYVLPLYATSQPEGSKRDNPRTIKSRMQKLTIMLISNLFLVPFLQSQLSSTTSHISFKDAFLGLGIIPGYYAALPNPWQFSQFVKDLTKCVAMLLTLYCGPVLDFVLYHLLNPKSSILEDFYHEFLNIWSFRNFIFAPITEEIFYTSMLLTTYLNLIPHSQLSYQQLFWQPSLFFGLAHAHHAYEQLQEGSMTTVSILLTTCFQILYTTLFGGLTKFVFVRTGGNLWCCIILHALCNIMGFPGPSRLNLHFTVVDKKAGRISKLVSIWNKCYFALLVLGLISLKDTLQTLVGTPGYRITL
CSC inhib – cancer stem cell inhibition. actives 1.1% (n = 300,000). inhibition, % at 7.5 µM. cancer stem cell-like cells viability, luminescence. AID 2717;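 active = mean at 75% or more and at least half the replicates too; inconclusive = mean and replicates disagree; tested in HMLE shEcad cells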;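 note: 0% = median of negative and 100% = median of positive control wells; the first replicate is given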
MT1-MMP act inh – inhibitors of human MT1-MMP activation; P50281; HT1080 RFP-PRO-GFP cells, GFP/RFP ratio fluorescence, overnight; percent of plate control window, DMSO zero; GFP/RFP ratio change, % at 20 µM; actives 0.061% (n = 360,000); AID 651647;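 active = GFP/RFP ratio change of at least 30% with cell ATP level not reduced by more than half and red fluorescence within 50% of control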; note: strong numbers were not always called active
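Read-out: GFP/RFP fluorescence ratio; Test system: RFP-PRO-GFP reporter HT1080 cells; Compound dosing: single-point 20 µM compound, 1% DMSO; Times: overnight compound exposure at 37 °C.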
Yeast UUG start – alters start codon recognition fidelity in yeast; S. cerevisiae UUG-firefly luciferase reporter, luminescence/redox ratio; activity score, % at 18.7 µM; actives 0.13% (n = 350,000); AID 602363;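 active = replicate mean at a twofold rise or more, about +100% in these data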;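 note: firefly luciferase made from a UUG start codon reports start codon fidelity; reporter light over untreated wells divided by growth signal over untreated wells; some hits fall short of that in this replicate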
PABP polyA inh – blocks human PABP binding to poly(A) RNA | P11940 | fluorescence polarization | inhibition, % at 35 µM | actives 1% (n = 290,000);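 active = 50% or more with normal probe brightness, or confirmed in later tests; inconclusive = above 50% with abnormal brightness, or retests that disagree; inactive = below 50% or failed in later tests; about a fifth of its hits are not listed in these tables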;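 note: calls also rest on retests at 20 µM and on dose response follow-up; controls were probe without protein and protein plus probe with vehicle; some compounds called inactive have numbers as strong as hits; many hits fall short of the cut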
eIF4H inh retest – further read-out of eIF4H inh, marked with its call; inhibition, %; compound at 20 µM; confirmation average;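 mean of two retest wells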
PABP polyA inh retest – second read-out of PABP polyA inh, no call of its own (marks repeat the call); inhibition, %; compound at 20 µM; confirmation repeats;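 mean of two retest wells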
MT1-MMP act inh RFP – also measured in MT1-MMP act inh; calls as there; RFP signal change, %; measured here: RFP expression control read;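 0 = vehicle wells; hits needed this value within 50% of zero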
Active calls of the source: *; i = inactive; ? = inconclusive; . = no result given.

SMILES	eIF4H inh	Env fusion inh	Rce1 inh	CSC inhib	MT1-MMP act inh	MT1-MMP act inh RFP	Yeast UUG start	PABP polyA inh	others
O=C1CSC(=Nc2cc(Cl)ccc2Cl)N1	0	.	i	.	3	6	.	-9
Cc1cc(C)c2c(n1)SCC(=O)N2CC(=O)NCCC1=CCCCC1	-4	14	i	-7	0	8	0	3
COc1ccc(OCCN2CCC(C(=O)NC(c3ccsc3)c3ccccc3C)CC2)cc1 (stereo not drawn)	.	8	.	.	-1	-3	-12	.
COc1ccccc1OCC(=O)Nc1nonc1NC(=O)COc1ccccc1OC	11	2	i	-10	-3	-1	1	-1
CCN(CC)CCNC(=O)C(=O)NCC1OCCN1S(=O)(=O)c1ccc(Cl)cc1 (stereo not drawn)	0	-12	i	-1	-2	0	-3	-2
COC(=O)CNC(=O)c1cn(-c2ccc(C)c(C)c2)c(=O)c2ccccc12	-15	15	i	0	-6	-1	-3	3
Cc1cccc(N2CC(C(=O)Nc3nnc(SCC(=O)Nc4cc(C)on4)s3)CC2=O)c1 (stereo not drawn)	-2	.	i	-1	1	3	.	?
CCOC(=O)C1CCN(C(=O)c2ccc3c(Cl)c4c(nc3c2)CCCC4)CC1	5	-45	i	-3	-4	0	7	8
COc1ccc(C(=O)NCc2cnn(C)c2)cc1OC1CCN(C(C)C)CC1	-3	-8	i	21	-2	2	-4	2
COc1ccc(NC(C)=O)cc1S(=O)(=O)N1CCN(C(=O)c2ccccc2F)CC1	-7	2	i	-11	4	1	0	-3
NC(=O)CC(NC(=O)Cc1ccc(Cl)cc1)c1ccc(NC2CCCCCCC2)c([N+](=O)[O-])c1 (stereo not drawn)	-7	4	i	-1	3	1	12	-8
N=c1sccn1CC(=O)Nc1ccccc1-c1ccccc1	5	.	i	-7	4	4	-15	4
CCCc1nc(N)c(C#N)c(-c2ccco2)c1CC	-2	-70	i	-1	-9	-5	-7	-4
O=C(O)c1ccccc1-c1ccc(/C=c2\sc3nc4cc(Br)cnc4n3c2=O)o1	77*	.	i	14	-52	2	73	51*	eIF4H inh retest=69*;PABP polyA inh retest=62*
CSc1ncnc2c1ncn2CCCNCC(c1ccccc1)c1ccccc1	.	11	.	.	0	0	-14	.
COCCCNC(=S)NNC(=S)Nc1ccccc1	-4	-14	i	-11	-1	-5	-25	9
CCS(=O)(=O)N1Cc2ccccc2CC1C(=O)Nc1ccc(F)c(F)c1F (stereo not drawn)	-1	0	i	-10	0	-1	-7	-1
CC(C)(C)C(=O)Nc1ccc(S(=O)(=O)N2CCC(c3nc4ccccc4[nH]3)CC2)cc1	.	-32	i	7	0	-3	-9	.
Clc1ccc(CNc2ccccc2NCc2ccc(Cl)nc2)cn1	30	14	i	20	-4	-4	.	16
CCOC(=O)N1CCC(NC(=O)c2cc(COc3ccccc3SC)on2)CC1	-11	30	i	-28	2	-11	-12	-12
CCC1CCCCN1C(=O)Nc1ccc(F)cc1 (stereo not drawn)	-2	-9	i	-12	3	5	-7	0
CSCC(C)N1CCC(n2nccc2NC(=O)c2ccc3c(c2)OCO3)CC1 (stereo not drawn)	30	-3	i	-10	-1	7	-6	27
COCCn1c(NC(=S)NC(=O)C2CC2)cc(=O)[nH]c1=O	-4	16	i	.	1	0	-18	-10
CC(C)(C)C(=O)/C=C(N)/C=C/c1ccccc1	-2	-86	i	2	2	4	-23	12
O=C(Nc1cc(N2CCOCC2)ncn1)Nc1cccc2ccccc12	-12	0	i	-3	5	-1	-19	-8
CCN(CC)c1ccc(NC(=O)CCN2C(=O)c3ccccc3S2(=O)=O)c(C)c1	.	-5	i	-9	-4	1	-11	.
CN1CCN(C(=O)CN(c2ccccc2)S(=O)(=O)N(C)C)CC1	4	14	i	-7	.	.	.	-11
O=C(COC(=O)CNC(=O)c1ccc(Cl)cc1)Nc1cccc(S(=O)(=O)N2CCCC2)c1	-4	1	i	-4	-1	1	-2	-14
CC(=O)c1sc(NC(=O)c2ccc(C)c(C)c2)nc1C	-13	-79	i	-6	-1	-8	.	-14
Brc1ccc(CSc2nnc(-c3ccco3)o2)cc1	-1	-9	i	6	3	5	.	-4
CN1CCN(CC(=O)NC(=O)NC2CCCCC2)CC1	.	.	.	-5	2	5	7	.
O=C(NCC1(c2ccccc2)CCCC1)c1cccc(Br)c1	0	.	i	23	-13	-13	-14	-5
Cc1ccc(S(=O)(=O)Nc2nncs2)cc1	-2	-62	i	-3	-4	-6	-13	-5
O=C(NCCCn1ccnc1)c1cc2ccccc2o1	-8	8	i	-8	5	4	-13	-8
CCN(CC)C(=O)c1cc2c(=O)oc3ccccc3c2s1	-3	-17	i	-16	3	9	-2	62	eIF4H inh retest=-5;PABP polyA inh retest=6
COC(=O)c1cc(NC(=O)c2c(Cl)nc3sccn23)cc(C(=O)OC)c1	-10	.	i	2	3	2	-9	-6
CCOC(=O)C(C)n1nc(/C=C/c2ccc(OC)cc2)ccc1=O (stereo not drawn)	5	-26	i	-8	13	1	.	0
CCC(NC(=O)C1CCCC1)c1ccc(C)cc1 (stereo not drawn)	-4	4	i	-5	1	4	-7	6
CCCCn1c(N)c(N(CCOC)C(=O)c2cccc(S(=O)(=O)N3CCCCC3)c2)c(=O)[nH]c1=O	.	-58	i	-12	-9	5	-3	.
O=C(Nc1nnc2n1CCS2)c1ccc(Br)o1	8	1	i	-9	2	5	-21	5
Cc1cccc(Oc2ccc(NC(=O)c3ccccc3C(=O)O)cc2)c1	-9	-5	i	16	4	-2	-20	-9
Cc1ccc(C)c(NC(=O)c2ccccc2O)c1	2	.	i	28	1	-10	-12	-5
CCOC(=O)c1c(NC(=O)c2ccc(Cl)s2)sc(C)c1C	9	-99	i	-8	0	5	-10	-12
Cc1ccc(S(=O)(=O)N(C)C)cc1NC(=O)CCc1c[nH]c2ccccc12	-4	11	i	-2	2	-4	.	95	eIF4H inh retest=15;PABP polyA inh retest=18
Cc1cc(C)n(-c2ccc(C(=O)NCC(=O)Nc3cc(Cl)ccc3Cl)cc2)n1	.	2	.	0	4	0	-1	.
COc1ccccc1NC(=O)C(C)OC(=O)c1nc2nc(C)cc(C)n2n1 (stereo not drawn)	.	-8	i	6	-1	6	-19	.
C=CCOC(=O)N1CCC2CC1c1cc(-c3ccc(OC)cc3)ccc12 (stereo not drawn)	.	3	.	.	-3	-27	-11	.
COc1cc(C=O)ccc1OCCOCCOc1ccc(Cl)cc1	2	.	i	-10	1	-2	-1	-5
Cc1cccc(OCCCC(=O)Nc2ccc(N3CCCCC3)cc2)c1C	6	.	i	6	19	12	-6	-2
O=C(Nc1nccs1)c1ccc(Br)s1	-10	-11	i	8	-3	2	-11	-4

(more compounds)
SMILES	eIF4H inh	Env fusion inh	Rce1 inh	CSC inhib	MT1-MMP act inh	MT1-MMP act inh RFP	Yeast UUG start	PABP polyA inh	others
COc1ccc(C2C(C(C)=O)=C(C)N=c3s/c(=C\c4cc(C)n(C)c4C)c(=O)n32)c(OC)c1 (stereo not drawn)	?	-64	i	5	-146	39	-7	?
COc1cccc(-c2cnc(C(O)c3ccc(Cl)cc3)[nH]2)c1 (stereo not drawn)	.	8	.	.	2	-3	-20	.
N#Cc1c(SCC(=O)Nc2ccccc2)nsc1SCC(=O)Nc1ccccc1	1	10	i	-7	-3	-2	.	5
CSc1ncccc1C(=O)N(C)CC(=O)Nc1ccc(Cl)c(C(F)(F)F)c1	7	11	i	3	1	-7	-5	34
COc1ccc(-c2cc(C3CCNCC3)[nH]n2)cc1	10	1	i	2	2	5	-11	3
CN(CCc1ccccc1)C(=O)c1ccc(NC(=O)Cc2cccc([N+](=O)[O-])c2)cc1	.	6	.	5	6	-4	-23	.
COc1cccc2cc(C(=O)N3CC(C)OC(C)C3)c(=O)oc12 (stereo not drawn)	1	-44	i	-9	0	1	-7	-12
O=C(O)c1cc2c(ccc3ccccc32)[nH]1	-4	.	i	-18	-2	1	56	11
O=C(O)c1cc(-c2ccc(Cl)s2)nc2ccccc12	8	3	i	4	3	2	.	13
C=CCC(=O)N1CCCC(CNC(=O)c2ccc(-c3ccccc3)cc2)C1 (stereo not drawn)	4	8	i	-2	-1	-7	1	5

4 consecutive compounds from above, quoted:
SMILES	eIF4H inh	Env fusion inh	Rce1 inh	CSC inhib	MT1-MMP act inh	MT1-MMP act inh RFP	Yeast UUG start	PABP polyA inh	others
COc1ccc(-c2cc(C3CCNCC3)[nH]n2)cc1	10	1	i	2	2	5	-11	3
CN(CCc1ccccc1)C(=O)c1ccc(NC(=O)Cc2cccc([N+](=O)[O-])c2)cc1	.	6	.	5	6	-4	-23	.
COc1cccc2cc(C(=O)N3CC(C)OC(C)C3)c(=O)oc12 (stereo not drawn)	1	-44	i	-9	0	1	-7	-12
O=C(O)c1cc2c(ccc3ccccc32)[nH]1	-4	.	i	-18	-2	1	56	11

Other structures:
SMILES	eIF4H inh	Env fusion inh	Rce1 inh	CSC inhib	MT1-MMP act inh	MT1-MMP act inh RFP	Yeast UUG start	PABP polyA inh	others
Cc1ccc(S(=O)(=O)C2(C(=O)N3CCN(c4cc(C)ccc4C)CC3)CC2)cc1	-15	15	i	-7	-41	-34	-21	2
Fc1ccc(/C=N/NC(=S)Nc2cccnc2)cc1	-7	-6	i	.	-2	-1	-29	4
O=C(NCCOc1ccccc1Cl)C(=O)Nc1ccccc1	-8	-21	i	35	3	3	.	-3
Cc1cc(C)nc(OC(C(=O)O)C(OCCC(C)C)(c2ccccc2)c2ccccc2)n1 (stereo not drawn)	1	28	i	4	-4	2	0	1
COc1ccccc1CNC(=O)CCc1nc2ccccc2c(=O)[nH]1	-2	.	i	0	-3	4	-19	2
COC(=O)c1ccc(CSCC(=O)Nc2cc(OC)cc(OC)c2)o1	-2	5	i	-5	-1	-3	-10	-7
CC1CCN(S(=O)(=O)c2ccc(C(=O)N3CCOCC3)cc2)CC1	4	7	i	-6	1	-1	-12	9
CN1CCN(S(=O)(=O)c2cccc(C(=O)NCCOc3ccccc3F)c2)CC1	8	2	i	-7	-1	5	-12	11
CSCC(C)N1CCC(Oc2cccc(C(=O)NCc3ccccn3)c2)CC1 (stereo not drawn)	60	.	i	4	-7	2	-8	41	eIF4H inh retest=20;PABP polyA inh retest=40
CC(Sc1nnnn1-c1cccc(F)c1)C(=O)NC1CCCC1 (stereo not drawn)	.	18	.	.	0	1	-13	.
CCOC(=O)C1CCN(Cc2ccc(F)c(F)c2)CC1	-2	0	i	-6	5	5	.	17
COc1ccc(C(CNC(=O)c2ccc(Cl)c(S(=O)(=O)N3CCCC3)c2)N2CCCC2)cc1 (stereo not drawn)	.	-7	.	2	10	-3	-28	.
CCCn1c(NC(=O)CN2C(=O)NC3(CCCC3)C2=O)nc2ccccc21	.	.	i	.	7	3	-15	.
COc1ccc([C@H]2CC(=O)C=C(c3ccc(C(F)(F)F)c(C(F)(F)F)c3)C2)cc1OC	.	5	.	37	6	4	-14	.
CC1CCCC(C)N1CC(O)COC1CCC(C(C)(C)C)CC1 (stereo not drawn)	-1	3	i	-7	-1	-1	-7	-1
O=C(Nc1ccc(Cl)cc1)N1N=CCC1c1ccccc1 (stereo not drawn)	-8	-1	i	25	-1	-5	-20	4
COc1ccc(NC(=O)CCN2CCCC2)c(OC)c1	0	.	i	-2	-1	0	17	0
CCN1CCN(c2nc(C)c3c(n2)CC(C)CC3=O)CC1 (stereo not drawn)	-2	1	i	40	-14	-6	.	0
CC(=O)OCC(=O)C1(O)CCC2C3CC(F)C4=CC(=O)CCC4(C)C3C(O)CC21C (stereo not drawn)	.	-113	.	.	-1	-2	-2	.
COC(=O)Cc1[nH]c(=O)[nH]c1C(=O)OC	0	4	i	-1	6	6	-23	6

Source: PubChem

Only part of the results is shown (hit frequency here may not be typical).
